# Sa growth 42C: blocks Staphylococcus aureus growth; S. aureus RN4220 growth, OD600, 20 h, 42 °C; active compounds read low; relative growth, % (concentration not given with the values); 170,000 compounds, 0.53% hits;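 active means growth at 42 °C up to 50% and 20 or more points under that at 30 °C, or under 10% at both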;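 further: 300 nL library stock went into each well; scaled to the means of positive and negative controls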
# GIV-Gai inh: inhibitors of GIV GBA-motif binding to rat Galpha-i3. percent of control (FP), % (no concentration beside the values). Galpha-i3/FITC-GIV peptide fluorescence polarization, 90 min; active compounds read low; scaled: aluminum fluoride 0%, vehicle 100%. P08753. 210,000 compounds, 0.42% hits. AID 1224905;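 active means replicate mean at 85% of control or lower, very high polarization wells dropped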;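 further: wells of about 15 µL received 100 nL stock; the first replicate is given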
# Target sequence (P08753 whole entry, looked up): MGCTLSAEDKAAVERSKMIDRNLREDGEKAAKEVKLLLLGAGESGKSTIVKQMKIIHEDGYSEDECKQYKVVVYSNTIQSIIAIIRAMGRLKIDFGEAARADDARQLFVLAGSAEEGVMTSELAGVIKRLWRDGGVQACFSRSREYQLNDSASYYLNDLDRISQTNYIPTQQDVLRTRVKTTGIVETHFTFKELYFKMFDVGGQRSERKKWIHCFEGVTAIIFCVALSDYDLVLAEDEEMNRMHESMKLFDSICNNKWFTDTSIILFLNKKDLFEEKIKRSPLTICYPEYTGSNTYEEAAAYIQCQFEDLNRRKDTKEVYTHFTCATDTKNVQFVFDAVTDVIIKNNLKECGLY
# HCMV UL50-53 inh: inhibitors of HCMV UL50-UL53 nuclear egress complex interaction | inhibition, % (no concentration beside the values) | HTRF UL50-UL53 interaction, normalized percent inhibition | 190,000 compounds, 0.15% hits;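 active means both replicates at 50% or more, plus weaker picks with an unusually low signal ratio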;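 further: stock transfer was 100 nL into about 20 µL; 0% = negative control wells and 100% = wells with untagged competitor protein; inactives centre near -12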
# Sa growth 42C second temp: second read-out of Sa growth 42C, no call of its own (marks repeat the call); relative growth, %; measured here: growth at 30 °C;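 optical density after 20 h as mean of two plates; 100% = untreated growth and lower means inhibition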
# Numbers without * were called inactive; . = no result given; & = joins results of further samples.
SMILES,Sa growth 42C,Sa growth 42C second temp,GIV-Gai inh,HCMV UL50-53 inh
CC(C)CN(C(=O)C1COc2ccccc2O1)c1c(N)n(CC(C)C)c(=O)[nH]c1=O (configuration not stated),99.9,96.5,.,1.4
CCOC(=O)c1noc2ncn(CC(=O)Nc3ccc(F)cc3)c(=O)c12,.,.,98.1,-29.5
O=C(OCCN1C(=O)c2cccc3c(N4CCOCC4)ccc(c23)C1=O)c1cccc([N+](=O)[O-])c1,.,.,115.2,2.5
COc1ccc(C2C(C(=O)OC(C)C)=C(C)NC3=C2C(=O)CC(c2ccc(OC)c(OC)c2)C3)c(OC)c1 (configuration not stated),.,.,100.4,-38.0
CC1(C)CC(=O)C=C(SCCS(=O)(=O)c2ccccc2)S1,97.2,72.4,107.7,-27.1
Clc1ccc(-c2noc(CN3CCOCC3)n2)cc1,88.9,77.9,105.2&102.5,-14.4&-29.7
Cc1ccc(S(=O)(=O)N2CCC[C@H]2C(=O)OCC(=O)N2CCc3ccccc32)cc1,101.1,93.7,.,-7.2
CCCS(=O)(=O)N1N=C(c2ccc(Cl)cc2)CC1c1ccco1 (configuration not stated),108.2,87.6,182.3,-5.9
COc1cccc(-c2csc(-c3ccccn3)n2)c1,66.2,43.4,102.2,-13.1
COc1ccc(NC(=O)NCCn2c(C(F)(F)F)nc3cccnc32)cc1OC,.,.,109.0,-8.6
CCN(CC)C(=O)CSc1cn(CC(=O)N2CCCCCC2)c2ccccc12,124.1,84.4,106.6,.
O=C(Cn1nc(-c2ccc(F)cc2)c2cnc3cc4c(cc3c21)OCCO4)NC1CCCC1,.,.,103.0,10.2
CC(Oc1ccccc1)C(=O)NCc1ccco1 (configuration not stated),90.6,98.8,.,13.6
CC1(C)OC(=O)C(=CNCCO)C(=O)O1,91.6,85.4,103.9,-12.3
CN(C)C(=O)CN1CCN(c2cc(C(=O)O)c3cc(NC(=O)c4ccccc4Cl)ccc3n2)CC1,.,.,104.3,-18.9
CC(Oc1ccc(-c2ccccc2)cc1)c1nnc(-c2cccs2)o1 (configuration not stated),93.6,96.6,.,-36.3
Cc1cccc(C(C)C)c1NC(=O)CSc1ncnc2[nH]ncc12,111.8,89.1,.,1.3
CC(Oc1ccccc1)C(=O)Nc1c(C(=O)Nc2cccc(F)c2)oc2ccccc12 (configuration not stated),106.8,88.7,104.2,-25.3
CCOc1ccc(NC(=O)c2ccc(S(=O)(=O)c3ccccc3)nc2)cc1,.,.,100.8,17.1
CCC(C(=O)NCc1ccc(OC)cc1OC)N1C(=O)CSc2ccc(C(C)(C)C)cc21 (configuration not stated),101.8,84.5,106.1,.
CCOCCCNC(=O)C1CCC(CNS(=O)(=O)c2ccc(NC(C)=O)cc2)CC1 (configuration not stated),117.7,89.2,99.5,.
Cc1ccc(C)c(N2CCN(C(=O)c3c4c(nc5ccccc35)C(=O)N(C3CCCCC3)C4)CC2)c1,111.4,90.1,102.5,.
COc1ccccc1N1CCN(C(=O)CC(C)c2ccccc2)CC1 (configuration not stated),108.3,88.0,.,-13.1
O=C(NCc1ccco1)C(=S)N1CCOCC1,105.1,75.7,100.7,-5.3
COc1ccc(-c2nc3ccc(Cl)cn3c2Nc2ccc(C)cc2)cc1,85.2,89.2,102.8,-1.6
SMILES,Sa growth 42C,Sa growth 42C second temp,GIV-Gai inh,HCMV UL50-53 inh
C=C(C)CNCC1OCCc2ccccc21 (configuration not stated),95.5,89.1,.,-4.9
CCC(=O)N1c2ccc(S(=O)(=O)NCc3cccc(OC)c3)cc2CC1C (configuration not stated),109.1,86.5,103.2,-11.2
CCC(Cn1nnc2ccccc2c1=O)NC(=O)Nc1ccc(C)cc1C (configuration not stated),105.6,95.0,99.4,-11.2
Cc1nc2nc(COc3ccccc3)[nH]n2c(=O)c1C,101.5,90.6,97.2,.
CCC(CC)C(=O)N1CCc2c(c(C(=O)NCc3ccccc3)nn2C)C1,.,.,103.6,-24.5
CC/C(=C\c1ccccc1)CN1CCCCC1,94.6,89.0,.,-4.3
c1ccc2cc3cnccc3cc2c1,3.6*,2.4*,106.9,-122.6
COC(=O)c1ccccc1NC(=O)C1=Cc2cc(C)ccc2OC=C1,.,.,101.9,2.9
CC(C)NC(=O)/C(C#N)=C/c1ccc2c(c1)OCCO2,105.7,76.7,.,-43.2
O=C(CCn1cccc1)NC1CC1,105.2,86.6,98.8,-21.9
CCc1ccc(OCC(=O)Nc2cc3oc4ccccc4c3cc2OC)cc1,77.1,78.9,105.7,-13.5
CCc1cc(=O)oc2c(O)c(O)ccc12,102.0,67.7,100.8,-30.3
CCc1cc2c3c(c(=O)oc2cc1OC)CCCC3,94.2,99.5,103.1,.
NCCc1nnc(SCc2ccc(Cl)cc2)o1,95.9&111.7,103.1&82.6,108.4&103.9,10.6&0.1
CCCCN1C(=O)c2ccc(C(=O)OCC(=O)Nc3ncc(Cl)cc3Cl)cc2C1=O,61.4,84.2,.,-22.8
O=C(c1ccc(CN2C(=O)CCn3nc(-c4cccc(Cl)c4)cc32)cc1)N1CCCCC1,.,.,103.3,-4.5
O=C(c1sc2ccccc2c1Cl)N1CCCCC1,99.2,96.0,106.1,-2.8
Cc1cc(C)c2oc(C(=O)N(Cc3ccc(F)cc3)C3CCS(=O)(=O)C3)cc(=O)c2c1 (configuration not stated),105.0,86.0,107.0,0.0
CS(=O)(=O)/C(C#N)=C/N=S(C)(=O)c1ccsc1 (configuration not stated),96.1,83.9,120.1,-3.1
O=C(NCC1COc2ccccc2O1)Nc1ccc(NC(=O)NCC2COc3ccccc3O2)cc1 (configuration not stated),70.8,89.2,.,-34.8
O=C1N(CN2CCCCCC2)c2ccccc2C12OCCO2,96.5,89.1,104.9,.
COc1ccc(N(CC(=O)NCc2ccc(C)cc2)S(=O)(=O)c2c(C)[nH]c(=O)[nH]c2=O)cc1,100.7,101.5,107.5,22.7
O=C(Nc1nccs1)c1ccc(N2C(=O)CCC2=O)cc1,67.7,106.5,97.4,-16.9
Nc1ccc(C(=O)NCC2COc3ccccc3O2)cc1 (configuration not stated),98.5,102.4,107.9,-3.6
CCOc1cccc(NC(=O)C2CC(=O)N(/N=C(\C)c3ccc(Br)s3)C(=N)S2)c1 (configuration not stated),133.3,57.4,101.2,.

# Exported with values under each structure: part of the list above.
# Order of results: Sa growth 42C | Sa growth 42C second temp | GIV-Gai inh | HCMV UL50-53 inh
COC(=O)c1ccccc1NC(=O)C1=Cc2cc(C)ccc2OC=C1
→ . | . | 101.9 | 2.9
CC(C)NC(=O)/C(C#N)=C/c1ccc2c(c1)OCCO2
→ 105.7 | 76.7 | . | -43.2

# Other records
SMILES,Sa growth 42C,Sa growth 42C second temp,GIV-Gai inh,HCMV UL50-53 inh
CC1(C)CC(=O)C2=C(C1)N=C1c3ccccc3C(=O)C1C2c1ccc(O)c(O)c1 (configuration not stated),83.9,62.7,99.0,-108.7
COc1cc(N2CCn3c(nc4cc(Cl)ccc43)C2)ccc1NC(=O)Nc1ccccc1,.,.,102.3,7.2
CCOC(=O)c1ccc(Nc2ncnc3[nH]ncc23)cc1,115.9,89.7,107.6,6.8
COCCCNC(=O)c1ccc(N2CCCN(Cc3ccccc3C)C2=O)cc1,.,.,102.4,-0.7
COc1ccc(CCNC(=O)Cc2c(C)c3ccc(O)c(C)c3oc2=O)cc1OC,99.9,86.8,96.7,-35.7
CCN(CC)S(=O)(=O)c1ccc(C(=O)NCc2ccc3c(c2)cc(C)n3C)cc1,99.3,70.2,100.1,-23.1
CCOC(=O)c1c(CN2CCCC2)oc2ccc(OC)cc12,97.7,93.9,108.5,14.2
CC#CCOC(=O)c1c(C)nc2sc3c(c2c1N)CCC(O)C3 (configuration not stated),.,.,104.5,-30.8&-122.7
Nc1nc2[nH]c(=S)[nH]c2c(=O)[nH]1,82.6,89.3,106.0,-15.0
Cc1occc1-c1n[nH]c(=S)n1C,99.2,90.6,.,0.0
COc1ccc(C2C3=C(CCCC3=O)N=C3c4ccccc4C(=O)C32)cc1 (configuration not stated),91.9,68.7,103.9,.
CC(=O)N1CCC2(CC1)OC(=O)C(C)=C2C(=O)Nc1ccc(C)c(Cl)c1,.,.,103.0,-10.6
COc1ccc(OCCSc2nc(C)c(Cc3ccccc3)c(=O)[nH]2)cc1,102.9,86.9,103.2,-8.9
CCCc1c(C(=O)O/N=C/c2ccc(C#N)cc2)cnn1-c1ccccc1,93.0,81.8,103.2,-20.7
O=C(CSc1ccccc1C(=O)Nc1nccs1)NCc1ccco1,98.8,86.0,.,-15.9
COc1ccc(C(=O)CSc2nnnn2C2CCCCC2)cc1OC,.,.,99.9,-26.9
CCN1C(=O)/C(=c2/sc3nc4ccccc4n3c2=O)c2ccccc21,90.8,107.6,.,-0.7
COc1cccc(C(=O)O)c1OCC(=O)O,89.1,88.2,104.0,-9.5
CC1CCCCN1S(=O)(=O)c1ccc(C(=O)Nc2nc(-c3ccc4c(c3)OCO4)cs2)cc1 (configuration not stated),92.3,76.4,101.1,-23.2
Cc1ccc(CN2c3ccccc3-c3nc(SCC(=O)Nc4c(C)cc(C)cc4C)ncc3S2(=O)=O)cc1,124.6,89.4,113.1,.
O=C(COC(=O)c1cc2ccccc2cc1O)NC1CC1,104.7,95.6,.,-53.5
CCc1c(C)c(C#N)c2nc3ccccc3n2c1Nc1cccc(C(F)(F)F)c1,105.8,88.8,108.5,-8.7
Cn1cc(S(=O)(=O)NC2CCCCCCC2)c(S(=O)(=O)NC2CCCCCCC2)c1,101.6,97.7,105.0,-26.2
O=C(CCCn1c(=O)[nH]c2ccsc2c1=O)N1CCN(Cc2ccc3c(c2)OCO3)CC1,.,.,105.2,-11.3
CCc1ccc(OCC(=O)N(Cc2ccc(OC)cc2)C2CCS(=O)(=O)C2)cc1 (configuration not stated),104.0,89.7,96.4,.

# Quoted at random: 2 compounds from above, in no set order.
SMILES,Sa growth 42C,Sa growth 42C second temp,GIV-Gai inh,HCMV UL50-53 inh
CCN1C(=O)/C(=c2/sc3nc4ccccc4n3c2=O)c2ccccc21,90.8,107.6,.,-0.7
COc1ccc(CCNC(=O)Cc2c(C)c3ccc(O)c(C)c3oc2=O)cc1OC,99.9,86.8,96.7,-35.7

# Gathered by group: the entries above with a CF3 group.
SMILES,Sa growth 42C,Sa growth 42C second temp,GIV-Gai inh,HCMV UL50-53 inh
COc1ccc(NC(=O)NCCn2c(C(F)(F)F)nc3cccnc32)cc1OC,.,.,109.0,-8.6
CCc1c(C)c(C#N)c2nc3ccccc3n2c1Nc1cccc(C(F)(F)F)c1,105.8,88.8,108.5,-8.7

# Next records follow.
SMILES,Sa growth 42C,Sa growth 42C second temp,GIV-Gai inh,HCMV UL50-53 inh
COc1ccc(CCNC(=O)Cn2cnc3c(nnn3Cc3ccc(F)cc3)c2=O)cc1OC,102.1,95.0,104.4,1.6
O=C(Cn1ncc2ccsc2c1=O)N1CCCC1,84.8,87.8,105.8,4.1
Cc1cccc(NC(=O)CSc2nnc(NC(=O)Nc3ccccc3)s2)c1C,89.2,70.1,91.8,.
CC1=C(C(=O)N2CCN(c3cccc(Cl)c3)CC2)C2(CCCCC2)OC1=O,91.3,85.2,99.6,.
COC(=O)CN(c1ccc(C)c(C)c1)S(C)(=O)=O,79.6,86.2,105.6,-26.2
COc1ccc(C2=C(C)C(=NCCCN3CCN(c4cc(C)ccc4C)CC3)NS2(=O)=O)cc1,105.9,91.5,97.8,-18.1
COc1ccc(C2CC(=O)C3=C(C2)OC(N)=C(C#N)C3c2cccc(Br)c2)cc1 (configuration not stated),.,.,98.7,-16.5
Cc1ccc(NCC(=O)N/N=C/c2ccncc2)cc1,90.4,108.4,97.4,-20.1
O=C(Nc1ccccc1C(=O)Nc1ccc(Br)cc1)c1ccco1,103.9,96.0,100.1,7.3
CCCN(CCC)S(=O)(=O)c1ccc(C(=O)Nc2ccccc2-c2nc3ccccc3[nH]2)cc1,.,.,103.7,-3.6
O=C(CCCOc1ccc(Cl)cc1)N1CCOCC1,92.5,83.7,100.0,-22.1
CCOc1ccc(-n2c(=O)c3c4c(sc3n(CC(=O)N(CC)CC)c2=O)CCCCC4)cc1,93.3,90.9,101.3,.
Cc1ccc(-c2noc(-c3cc(C(C)(C)C)nn3Cc3ccccc3)n2)cc1,112.3,87.8,104.4,-18.9
OCC1OC(Oc2ccccc2)C(O)C(O)C1O (configuration not stated),102.5,93.1,102.4,-2.1
CCCCOC(=O)c1ccc(NC(=O)c2ccc3c(c2)CCCN3S(C)(=O)=O)cc1,95.9,96.2,107.1,10.1
O=C(COc1ccc([N+](=O)[O-])cc1)N1CCC(c2nc3ccccc3s2)CC1,109.6,82.4,97.1,-32.7
CCCN1CCN(CCNC(=O)Nc2cc(C)ccc2OC)CC1,101.0,86.2,97.7,-30.6
COc1ccc2[nH]c3c(N(C)C)ncnc3c2c1,94.3,92.0,.,-16.8
Cc1ccccc1CNC(=O)Cn1ncc2ccccc21,107.4,92.5,104.7,.
N#Cc1ccc(COC(=O)c2ccc3c(c2)NC(=O)C2CCCN32)cc1 (configuration not stated),87.2,79.2,.,-4.9
CCCNC(=O)c1c2c(nc3ccccc13)C(=O)N(C1CCCCC1)C2,102.9,89.6,96.4,.
O=C(COC(=O)C1CC(=O)N(Cc2ccco2)C1)c1ccc(-c2ccccc2)cc1 (configuration not stated),107.6,87.0,.,1.9
CC1CCN(c2ccc(NC(=O)CCS(=O)(=O)c3ccc4c(c3)CC(=O)N4C)cc2)CC1,.,.,100.0,-11.4
O=C(CC1CCCCC1)Nc1ccc2nc3n(c(=O)c2c1)CCCCC3,112.1,79.2,103.3,.
